Compound activity: PubChem, National Center for Advancing Translational Sciences (NCATS)
LASV entry inh = inhibitors of Lassa virus binding or cell entry | Lassa virus pseudotype entry inhibition, cell reporter; control for the full effect not named in the record | Potency, µM (titrated, usually from 37.9 µM), for inactives: at the highest dose activity change, negative = inhibition, hits mostly inhibitors | actives 1.2% (n = 300,000) | AID 540256; active means well fitted inhibition curve with a large enough effect; inconclusive means small, poorly fitted or top-dose-only effect, or effect the other way; inactive means flat fitted curve, though single readings scatter; tested in HEK293 cells; note: % is set by controls: 0 for no effect and ±100 for the full control effect; nearly all actives have a fitted effect of over 50% in size; luciferase read-out
Cruzain inh Det = cruzain (T. cruzi) inhibition with detergent; purified cruzain, Z-FR-AMC fluorescence, 0.01% Triton; Potency, µM, for inactives: max response, negative = inhibition, usual class: inhibitors; actives 0.43% (n = 200,000); active = well fitted curve in the direction sought with a large enough effect; inconclusive = small, poorly fitted or top-dose-only effect, or another doubt; inactive = no such curve, though single readings can be large; an effect the other way counts as inactive or inconclusive;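 note: plate controls were neutral wells for no effect and buffer without enzyme for full effect; nearly all actives have a fitted effect of over 40% in size; top concentration of the series not given in the record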
Target sequence (P25779 123-467 limits assumed): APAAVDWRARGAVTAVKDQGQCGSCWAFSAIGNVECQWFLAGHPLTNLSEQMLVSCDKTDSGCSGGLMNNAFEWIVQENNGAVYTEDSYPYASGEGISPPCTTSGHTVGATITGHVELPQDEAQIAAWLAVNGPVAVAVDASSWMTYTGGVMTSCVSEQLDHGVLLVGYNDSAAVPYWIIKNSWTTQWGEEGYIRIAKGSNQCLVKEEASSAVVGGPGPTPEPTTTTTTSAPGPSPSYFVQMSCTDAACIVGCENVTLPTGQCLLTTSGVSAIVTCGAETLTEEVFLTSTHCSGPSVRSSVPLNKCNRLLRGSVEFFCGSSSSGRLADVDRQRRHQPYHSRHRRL
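Cruzain (1.5 nM) preincubated 15 min at RT with compound in 100 mM sodium acetate pH 5.5, 5 mM DTT, 0.01% Triton X-100. Reaction started with 2 uM Z-FR-AMC; AMC fluorescence (ex 360/em 450 nm) change over 60 s gave rate.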
RE007 growth inh = less growth of the S. pombe RE007 Vpr strain. actives 0.21% (n = 360,000). S. pombe RE007 Vpr strain, BacTiter-Glo ATP luminescence, 24 h; control for the full effect not named in the record. AID 651644. Potency, µM (doses to about 92.2 µM), for the others: at the top dose activity change, negative = less growth; active = well fitted falling curve with a large enough effect; inconclusive = small, poorly fitted or top-dose-only effect; inactive = no such curve, though single readings can be large or run the other way;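 note: % is set by controls: 0 for no effect and ±100 for the full control effect; nearly all actives have a fitted effect of over 50% in size; the assay follows cell death caused by Vpr and the record does not say whether a fall means rescue or toxicity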
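Fission yeast RE007 carrying one integrated HIV-1 vpr copy, seeded at OD 0.01 in PMG+AL medium with 23 nL pinned compound. Grown 24 h at 30 degrees; viability read by BacTiter-Glo luminescence after 5 min.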
Marburg entry inh = inhibitors of Marburg virus binding or cell entry. Marburg virus pseudotyped entry inhibition, cell reporter; control for the full effect not named in the record; about a third of the inactives were read at about 46 µM. Potency, µM (series often up to 37.8 µM), for inactives: at the highest dose activity change, negative = inhibition, actives largely listed as inhibitors. AID 540276. actives 1.8% (n = 300,000); active = well fitted inhibition curve with a large enough effect; inconclusive = small, poorly fitted or top-dose-only effect, or effect the other way; inactive = flat fitted curve, though single readings scatter; tested in HEK293 cells; about a fifth of its hits are not listed in these tables; note: % is set by controls: 0 for no effect and ±100 for the full control effect; luciferase read-out
Cruzain inh noDet = blocks cruzain activity in detergent-free assay. actives 2.3% (n = 200,000). Potency, µM, for inactives: max response, negative = inhibition, usual class: inhibitors. purified cruzain, Z-FR-AMC fluorescence, no detergent. AID 1476. P25779; active = well fitted curve in the direction sought with a large enough effect; inconclusive = small, poorly fitted or top-dose-only effect, or another doubt; inactive = no such curve, though single readings can be large; an effect the other way counts as inactive or inconclusive;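 note: plate controls were enzyme without inhibitor for no effect and buffer without enzyme for full effect; nearly all actives have a fitted effect of over 40% in size; top concentration of the series not given in the record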
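Purified cruzain at 1.5 nM, pre-incubated 15 min with compound at room temperature in 100 mM sodium acetate pH 5.5, 5 mM DTT, 0.00005% Triton X-100. Reaction started with 2 uM Z-FR-AMC; AMC fluorescence increase over 60 s gives rate.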
NS1 function inh = blocks influenza NS1 protein function; AID 2326; Potency, µM (highest dose often 46.1 µM), for inactives: top-dose activity, positive = more growth; actives 0.4% (n = 270,000); S. cerevisiae slowed by influenza A NS1, growth recovery by OD600; note: actives are rising curves; nearly all actives have a fitted effect of over 50% in size
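S. cerevisiae expressing influenza A NS1, grown in glucose, washed, then diluted 1:100 into pH 6.0 -URA galactose medium with 23 nl compound. Growth recovery read as OD600; NS1-free strain serves as control.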
SARS PLpro yeast = SARS-CoV PLP inhibition in yeast; S. cerevisiae expressing SARS-CoV PLpro, growth rescue; control for the full effect not named in the record; actives 0.19% (n = 330,000); Potency, µM (titrated, usually from 32.9 µM), without a hit: top-dose activity, positive = growth rescue; note: 0% is about no effect; nearly all actives have a fitted effect of over 55% in size; growth read by luminescence after 48 h
StopGo reporter = FMDV 2A StopGo reporter, luciferase signal | human cells with a luciferase reporter of 2A StopGo recoding; control for the full effect not named in the record | Potency, µM (highest dose often 57.9 µM), inactives show at the highest dose signal change, negative = less light | actives 1.2% (n = 410,000) | AID 1159524; active = well fitted falling curve with a large enough effect; inconclusive = small, poorly fitted or top-dose-only effect; inactive = no such curve, though single readings can be large or run the other way; tested in HEK293T cells; note: % is set by controls: 0 for no effect and ±100 for the full control effect; nearly all actives have a fitted effect of over 45% in size; luciferase light after 4 h
Active calls of the source: *; ? = inconclusive; · = not tested or not shown; & = joins results of further samples; [ ] = another dose, or the depositor's remark. Unless noted, calls come from the whole dose curve; as a rule, active means well fitted rising curve with a large enough effect; inconclusive means small, poorly fitted or top-dose-only effect; inactive means no such curve, though single readings can be large or run the other way. Potency is the fitted concentration of half-maximal effect.

SMILES	LASV entry inh	Cruzain inh Det	RE007 growth inh	Marburg entry inh	Cruzain inh noDet	NS1 function inh	SARS PLpro yeast	StopGo reporter
Cc1cc(C)c2cc(CN(CCN(C)C)C(=O)Nc3ccccc3Cl)c(=O)[nH]c2c1	·	·	-13%	·	·	0%	0%	10%
Clc1ccc(N2CCOCC2)nn1	3%	·	8%	0%[14.2 µM]	·	·	3%	-11%
Cc1cc(-n2c(C)c3c(C)nnc(C)c3c2C)ccc1N	7%	·	-12%	17%[14.2 µM]	·	-1%	-1%	-18%
Cc1cc2c(C(F)(F)F)cc(=O)oc2c2c1NCCC2	-6%	2.7%	12%	?	-8%	0%	1%	·
Cc1ccc(CSC2=Nc3ccccc3C3=NC(CCC(=O)NCCc4ccccc4)C(=O)N23)cc1 (stereo not given)	?	-3.7%	·	·	25%	·	·	?
Cc1cccn2c(=O)c3cc(C(=O)NCCc4ccccc4)c(=N)n(CC4CCCO4)c3nc12 (stereo not given)	3%[46.1 µM]	·	4%	-4%[46.1 µM]	·	-2%	10%	-17%
COCCn1c(-c2ccc(C)cc2)nc2oc3cc(OC)ccc3c(=O)c2c1=O	·	·	-11%	·	·	-6%	0%	-15%
CC(C)(C)N(Cc1cc2ccccc2[nH]c1=O)C(=O)c1cccc([N+](=O)[O-])c1	-17%[46.1 µM]	·	0%	-13%[46.1 µM]	·	4%	0%	-23%
O=[N+]([O-])c1cccc(-c2nnc(CNC3CC3)o2)c1	3%	·	3%	10%[46.1 µM]	·	·	2%	-6%
CCOC(=O)N1CCN(C(=O)c2ccc(N(C)S(C)(=O)=O)cc2)CC1	3%	0.6%	19%	-16%	2%	12%	0%	-12%
C=COC(=O)CSc1nc(-c2cccs2)ccc1C#N	3%	-6.6%	1%	?	4%	1%	-1%	10%
CC(=O)OC1=C(C#N)Cn2ccc3cccc1c32	·	-2.0%	·	3%	-22%	-51%	-1%	·
O=C(NCCc1ccccc1Cl)c1ccc2c(c1)nc1n2CCOC1	0%[46.1 µM]	2.7%	·	·	3%	·	·	-23%
Cn1c(O)c(C=Nc2ccc(Cc3ccncc3)cc2)c(=O)n(C)c1=O	·	2.6%	·	1%	6%	-6%	0%	·
Cc1cnc(NC(=O)C2CCC(C(C)(C)C)CC2)s1 (stereo not given)	-26%	·	-14%	5%[46.1 µM]	·	8%	-13%	0%
COc1ccccc1NC(=O)C1C2C=CC(C2)C1C(=O)NCc1cccnc1 (stereo not given)	·	·	-14%	·	·	8%	-3%	-12%
O=C(Nc1ccccc1C(=O)OCc1cc(=O)n2c3c(sc2n1)CCCC3)c1cccc(Cl)c1	-16%[46.1 µM]	0.4%	·	·	0%	·	·	-5%
c1ccc2sc(Cc3nnc4n3CCCCC4)nc2c1	?	-0.6%	11%	9%	4%	6%	10%	·
C[C@]12CCC3C(CC[C@H]4C[C@@H](O)CC[C@]34C)C1C[C@@H](O)C2=O (stereo not given in full)	-7%	·	16%	10%	·	·	-3%	0%
CCOC(=O)c1ccc(N2C=C(C(=O)OC)C(c3ccc(OC)c(O)c3)C(C(=O)OC)=C2)cc1	·	·	-5%	·	·	-1%	0%	?
Cc1[nH]c(-c2ccc(F)cc2)cc1C(=O)N1CCN(c2ccccc2F)CC1	?	·	-19%	1%	·	-11%	-8%	-16%
Cc1ccc(-c2c(C(=O)NCCc3ccc(Cl)cc3)oc(=O)c3ccccc23)cc1	27%[46.1 µM]	-6.8%	·	?	-19%	·	·	-27%
CCc1nnc2n1N=C(c1ccc(-c3cc(Cl)ccc3Cl)o1)CS2	?	-3.2%	-8%	?	-14%	0%	3%	?
COC(=O)c1cc(NC(=S)Nc2cc(Cl)cc(Cl)c2)cc(C(=O)OC)c1	-1%	-9.2%	-22%	23%	-5%	-47%	-31%	?
Nc1nc(NCCO)nc(NC2CCCCC2)c1[N+](=O)[O-]	?	·	14%	14%[46.1 µM]	·	-2%	1%	-18%
O=C(O)Cc1sc(NCCc2ccccc2)nc1-c1ccc(F)cc1	3%	·	-12%	0%[46.1 µM]	·	10%	-10%	53%[activator]
CCC(=O)N1c2ccccc2-c2nnc(SC)nc2OC1c1ccc(OC)c(OC)c1 (stereo not given)	·	0.8%	5%	1%	14%	-12%	-9%	?
Oc1ccc(N=Nc2n[nH]c(-c3ccc(Cl)cc3)n2)cc1	·	-4.8%	13%	2%	-14%	-15%	-16%	56%[activator]
COc1ccc2oc(=O)cc(CN3CCN(C(=O)c4ccccc4Br)CC3)c2c1	10%[46.1 µM]	-6.3%	·	2%[46.1 µM]	-4%	·	·	-19%
Cc1ccc(-n2nc3ccc(NC(=O)C(C)C)cc3n2)cc1	?	·	25%	-3%	·	-1%	-1%	0%
CCOC(=O)c1cn2nc(Oc3ccc(C)cc3)ccc2n1	20%	·	1%	?	·	-1%	0%	54%[activator]
O=C(O)c1ccc(/C=N/Nc2nnnn2-c2ccccc2)cc1	13%	-3.8%	-15%	?	-9%	9%	-6%	3%
COc1cc(CC(=O)Nc2sc3c(c2C(N)=O)CCCC3)cc(OC)c1OC	?	·	0%	-19%[46.1 µM]	·	6%	0%	-19%
COc1ccc(CC(=O)O/N=C(\N)c2ccc(OC)cc2)cc1	?	·	1%	2%	·	-31%	-3%	19%
Cc1ccc(NC(=O)Cn2c(=O)oc3cc(S(=O)(=O)N4CCC(C)CC4)ccc32)cc1Cl	-4%[46.1 µM]	-3.5%	·	-20%[46.1 µM]	?	·	·	-2%
C=CCn1c(SCC(=O)NC(=O)c2cccc([N+](=O)[O-])c2)nnc1-c1ccccc1F	-1%	-6.6%	-6%	21%	-3%	-4%	-14%	-23%
CN(Cc1cccs1)CC(O)COCc1ccco1 (stereo not given)	7%	1.4%	5%	-14%	3%	1%	-1%	14%
CC(C)(CO)NS(=O)(=O)c1ccc2c(c1)C(=O)c1cc(S(=O)(=O)NC(C)(C)CO)ccc1-2	·	·	2%	·	·	2%	-1%	3%
O=C(CCN1CCCCCC1)Nc1ccc2c(c1)OCCO2	?	·	11%	-12%[46.1 µM]	·	·	1%	13%
COCCN1C(=O)N[C@@H](c2ccc(Br)cc2)C(C(=O)OC)=C1C	-15%	1.8%&-2.2%	·	-20%&-20%&-20%	16%&-13%	-5%	-14%	·
CN(C)CCCNC(=O)c1ccc(Cl)c(S(=O)(=O)N(C)c2ccccc2)c1	-25%	11%	16%[3.69 µM]	?	-4%	-6%	2%	5%
CCc1nn2cc(C(=O)c3cc(Cl)ccc3O)cnc2c1-c1ccc(F)cc1	?	1.4%	0%	-2%	-4%	-3%	-92%	?
O=C(COc1ccc(F)cc1)Nc1cc(S(=O)(=O)N2CCCCC2)ccc1N1CCCCC1	?	·	7%	?	·	·	-2%	-12%
O=C(NCCCN1CCCC1=O)C(=O)Nc1cccc(F)c1	12%	·	-1%	18%[46.1 µM]	·	·	-1%	7%
Cc1cccc(NC(=O)C2CC(=O)n3ncnc3N2)c1 (stereo not given)	1%	·	41%	10%[46.1 µM]	·	-4%	-5%	-5%
COc1ccccc1N(CC(=O)N/N=C/c1c(O)ccc2ccccc12)S(C)(=O)=O	9.2µM*	-12%	18%	?	14%	26%	11µM*	-30%
CCCNS(=O)(=O)c1ccc(OCC(=O)NCc2ccc3c(c2)OCO3)cc1	4%	0.7%	4%	-15%&-15%	-5%	-13%	16%	25%
COc1ccc(C(=O)N/C(=C\c2ccco2)C(=O)NCc2ccco2)cc1	·	·	-2%	·	·	11%	?	-3%
O=[N+]([O-])c1ccc(-c2csc(N3CCCCCC3)n2)cc1	?	·	4%	-6%	·	1%	-1%	13%
Fc1cccc(Cl)c1CSc1ncn[nH]1	9%	3.3%	-2%	?	6%	9%	5%	6%

More compounds.
SMILES	LASV entry inh	Cruzain inh Det	RE007 growth inh	Marburg entry inh	Cruzain inh noDet	NS1 function inh	SARS PLpro yeast	StopGo reporter
CCOc1ccc(C(=O)NCc2ccccn2)cc1	-2%	2.3%	4%	-3%	5%	6%	11%	63%[activator]
Cc1ccc(S(=O)(=O)N(C)c2nc3ccccc3n3c(C(C)C)nnc23)cc1	·	·	0%	·	·	21%	3%	1%
O=C(Nc1ccc(S(=O)(=O)N2CCCCC2)cc1)C1CCCN(C(=O)c2ccc(Cl)cc2)C1 (stereo not given)	0.29µM*	-6.0%	-2%	?	-3%	?	23%	?
COc1cccc(NC(=O)C2CCCN(S(=O)(=O)c3c(C)[nH]c(=O)[nH]c3=O)C2)c1 (stereo not given)	8%[46.1 µM]	-0.7%	·	-2%[46.1 µM]	-4%	·	·	6%
CCc1ccc(NC(=O)CN(C)S(=O)(=O)c2ccc3[nH]c(=O)oc3c2)cc1	16%[46.1 µM]	·	-6%	-2%[46.1 µM]	·	-3%	-4%	7%
O=C(CN1CCCCCCC1)N/N=C/c1ccc(F)cc1F	6%	-1.6%	3%	14%	5%	0%	2%	13%
Cn1c(CN2CCCC2)nc2cc(NC(=O)C3CCCCC3)ccc21	18%	-2.5%	8%	-5%	5%	5%	-2%	5%
C=CCn1c(C)cc(C(=O)Cn2c(C(C)O)nc3ccccc32)c1C (stereo not given)	-28%	·	?	-15%[46.1 µM]	·	·	2%	?
NC(N)=N/N=C/c1ccc2cccc(OCc3ccccc3)c2n1	?	·	24%	?	·	2%	-1%	?
CCN(C(=O)CCS(=O)(=O)c1cccc2nsnc12)c1cccc(C)c1	15%	-4.2%	0%	-3%&26%[46.1 µM]	0%	8%	10%	12%&0%
Cc1nc2c(c(C)c1CCC(=O)Nc1cccc(C(F)(F)F)c1)c(=O)n(C)c(=O)n2C	-2%[46.1 µM]	1.1%	·	0%[46.1 µM]	1%	·	·	?
c1ccc(-n2c3ccccc3c3ccccc32)cc1	-4%[46.1 µM]	·	-15%	?	·	5%	-2%	-11%
CCC(CC)C(=O)Nc1ccccc1SCc1cc(=O)c2cccc(C)c2[nH]1	-4%[46.1 µM]	0.4%	·	·	-9%	·	·	-14%
CCC(C)(C(=O)Nc1c(C)cccc1C)N(C)C(=O)c1ccc2ccccc2n1 (stereo not given)	·	·	-13%	·	·	-3%	-1%	-1%
